Assay outcomes (PubChem BioAssay)
Sfp PPTase inh: inhibitors of Bacillus subtilis Sfp phosphopantetheinyl transferase; Q9F4F7; Biochemical Sfp PPTase activity, qHTS; Potency, µM, for the others: max response, negative = inhibition, usual class: inhibitors; 310,000 compounds, 3.5% hits; AID 1490; active means well fitted inhibition curve with a large enough effect; inconclusive means small, poorly fitted or top-dose-only effect, or another doubt; inactive means no such curve, though single readings can be large or run the other way;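 further: the enzyme is Sfp with the accession as filed and its product quenches rhodamine fluorescence; potency means the concentration at half of the fitted maximal effect; 0% = enzyme reaction without inhibitor and -100% = no enzyme wells; top concentration of the series not given in the record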
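Step 1, compound plus 15 nM Sfp-PPTase, 15 min, room temperature. Step 2, add rhodamine-CoA (5 uM) and BHQ-2-YbbR (12.5 uM). Step 3, read 525/598 nm fluorescence at 0 and 30 min.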
TRPV1 potentiator: human TRPV1 potentiation; Q8NER1; TRPV1-expressing cells, Fluo-8 calcium influx, capsaicin EC20 potentiation; host cell line not named in the record; control for the full effect not named in the record; potentiation, % at 8.33 µM; 320,000 compounds, 0.02% hits; active means potentiation above 80%; inconclusive means 30% to 80%; inactive means below 30%; further: 0% is about no effect
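Cells expressing TRPV1 were dye-loaded with Fluo-8 and read kinetically: 10 s baseline, 3 min after compound (agonist portion), then 2 min after EC20 capsaicin (allosteric enhancer portion). Calcium-bound dye fluorescence at 480/520 nm.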
Menin-MLL FL inh: menin-MLL binding inhibition, fluorescein peptide. Fluorescence polarization, fluorescein-MLL peptide displacement from menin. FP activity change, % at 61.4 µM. 290,000 tested, under 10 active; inconclusive = falling polarisation curve, or a change in total fluorescence; inactive = total fluorescence flat and polarisation flat or rising; no compound was filed as active; the % refers to the polarisation; negative = inhibition;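 further: % of control where 0% means no effect; inhibitors lower the polarisation; unlabelled MLL peptide was the positive control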
TRPML1 inh: human mucolipin-1 channel inhibition. Q9GZU1. TRPML1-inducible cells, Ca2+ dye fluorescence, FDSS; active compounds read low; inhibition of EC80 agonist-evoked calcium signal. activity change, negative = inhibition, % (concentration not given with the values). 390,000 compounds, 0.02% hits. AID 624415; in the data active means activity change below about -50%; inconclusive means about -30% to -50%; inactive means above about -30%;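 further: stimulus is agonist 54-4 at its EC80 concentration; on the % scale 0 is the no-effect control and ±100 the full control effect; the text of the record puts the active cut at -80%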
Target sequence (Q9GZU1 whole entry, looked up): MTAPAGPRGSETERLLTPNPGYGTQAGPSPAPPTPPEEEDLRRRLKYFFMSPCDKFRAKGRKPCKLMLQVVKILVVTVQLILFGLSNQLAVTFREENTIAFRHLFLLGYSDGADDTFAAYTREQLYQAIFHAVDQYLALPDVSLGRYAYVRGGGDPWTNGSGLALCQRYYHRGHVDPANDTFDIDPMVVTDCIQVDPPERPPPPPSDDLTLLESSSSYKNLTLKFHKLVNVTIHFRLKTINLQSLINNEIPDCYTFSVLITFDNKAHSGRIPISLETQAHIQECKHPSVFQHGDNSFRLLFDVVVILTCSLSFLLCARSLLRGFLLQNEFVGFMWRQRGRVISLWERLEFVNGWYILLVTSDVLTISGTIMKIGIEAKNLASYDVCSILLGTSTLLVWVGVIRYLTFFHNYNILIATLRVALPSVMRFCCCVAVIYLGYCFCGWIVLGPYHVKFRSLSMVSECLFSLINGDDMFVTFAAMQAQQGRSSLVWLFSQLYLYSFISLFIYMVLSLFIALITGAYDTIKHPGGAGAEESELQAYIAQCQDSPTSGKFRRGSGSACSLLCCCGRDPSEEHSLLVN
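Tet-induced TRPML1-DL cells loaded with Ca8 no-wash calcium dye were read kinetically on FDSS. Compound addition was followed by EC80 agonist 54-4 (4 uM final); inhibition was read over 110 s.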
ClpP mod: qHTS Assay for Activators of ClpP. 340,000 compounds, 1.9% hits. Potency, µM (highest dose often 57.5 µM), without a hit: top-dose activity change, negative = active. purified B. subtilis ClpP, FRET peptide cleavage, 20 min; active = well fitted falling curve with a large enough effect; inconclusive = small, poorly fitted or top-dose-only effect; inactive = no such curve, though single readings can be large or run the other way; further: potency means the concentration at half of the fitted maximal effect; the source files actives as falling curves though it sought activators and does not explain the sign; nearly all actives have a fitted effect of over 65% in size; many hits overshoot -100%
Target sequence (P80244 whole entry, looked up): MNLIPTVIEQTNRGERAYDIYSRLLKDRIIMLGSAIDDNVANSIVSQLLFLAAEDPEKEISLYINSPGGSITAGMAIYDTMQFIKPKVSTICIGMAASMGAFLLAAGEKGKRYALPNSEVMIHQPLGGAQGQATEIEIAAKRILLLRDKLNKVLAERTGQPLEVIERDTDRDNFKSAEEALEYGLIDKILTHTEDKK
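FRET quenching reversal measured ClpP activation: 10 microg/mL B. subtilis ClpP at pH 8 with the FRET-FV decapeptide, read at 430 nm after 320 nm excitation. The 20-min minus 0-min signal was scaled between DMSO/no-enzyme wells and ADEP (5.8 microM final).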
gsp antagonist: antagonists of gsp mutant (McCune-Albright syndrome); gsp-mutant cells, cAMP HTRF, 30 min; control for the full effect not named in the record; Potency, µM (highest dose often 76.9 µM), for inactives: top-dose activity change, negative = inhibition, most hits filed as inhibitors; 340,000 compounds, 0.4% hits; active = falling curve of any shape with a large fitted effect; inconclusive = falling curve, mostly with a smaller effect; inactive = flat or rising curve; cell line not stated here;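 further: intracellular cAMP measured with PDE inhibitor Ro 20-1724 present during compound exposure; potency means the concentration at half of the fitted maximal effect; on the % scale 0 is the no-effect control and ±100 the full control effect; nearly all actives have a fitted effect of over 65% in size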
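HTRF cAMP read-out (cAMP-d2 plus anti-cAMP antibody-K in lysis buffer, 30 min RT). Before lysis, cells are exposed to compounds with […] for 30 min at 37C in DPBS containing Ca/Mg, BSA and Tween 20.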
gsp ag: activates gsp, the McCune-Albright syndrome mutation | gsp mutant cells, cAMP HTRF, 30 min; control for the full effect not named in the record | Potency, µM (titrated, usually from 76.9 µM), inactives show top-dose activation (cAMP increase), hits mostly activators | 340,000 compounds, 0.13% hits | AID 624287; active = well fitted activation curve with a large enough effect; inconclusive = small, poorly fitted or top-dose-only effect, or another doubt; inactive = no such curve, though single readings can be large or run the other way; cell line not stated here;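 further: phosphodiesterase inhibitor Ro 20-1724 added with compounds to block cAMP breakdown; potency means the concentration at half of the fitted maximal effect; nearly all actives have a fitted effect of over 60% in size; about a fifth of the inactives were tested at one dose only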
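Cells stably selected in G418 were plated at 2000/well, grown 16-24 hr, then given compounds in DMSO with the PDE inhibitor […] (300 uM solution added) for 30 min at 37C; cAMP was read by HTRF.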
The depositor's hits bear a star; ? = inconclusive; · = not tested or not shown; & = joins results of further samples; [ ] = remark or other dose.

SMILES	Sfp PPTase inh	TRPV1 potentiator	Menin-MLL FL inh	TRPML1 inh	ClpP mod	gsp antagonist	gsp ag
CCCC(=O)C1=C(N(C)c2ccccc2)CC(C)(C)CC1=O	8.7%	-2.4	3.5	-6.6	·	-2.4%	-11.5%
O=C(C1=C[C@H](c2ccc(C(F)(F)F)cc2)C[C@H](OCCCCO)O1)N1CCN(Cc2ccc3c(c2)OCO3)CC1	-2.6%	-8.4	0.3	25.0	-0.9%	-2.0%	·
c1ccc(N2CCN(c3ccc4nncn4n3)CC2)nc1	-7.2%	-2.3	-0.4	6.4	1.5%	3.0%	?
CC(C)(C)c1ccc(OCc2ccc(C(=O)N/N=C/c3ccc(O)c(O)c3)cc2)cc1	-8.5%	10.1	-0.5	-22.2	·	0.0%	9.1%[15.4 µM]
Cc1ccn2c(CC(C)(C)C)c(-c3ccc(F)cc3)nc2c1	·	·	·	-7.6	-17.5%	·	?
CCOC(=O)C(C)Sc1nc(-c2ccccn2)ncc1OC (centres undefined)	35.5µM*	18.8	0.4	-5.5	·	-2.1%	-2.9%[15.4 µM]
CCn1c(=O)c(CCC(=O)NCCN2CCOCC2)c(C)c2c(C)nn(-c3ccccc3)c21	1.6%	3.4	-1.0	-16.9	-4.7%	3.5%	23.4%
Cc1nnc(N/N=C/c2ccccc2C(F)(F)F)n1N	-18.6%	0.1	-0.1	·	-0.7%	6.8%	-5.9%
COc1ccc(C(=O)c2ccc(Cl)cc2)c2ccccc12	-13.1%	12.8	1.9	-23.6	-3.1%	-9.9%	33.4%
CC(C)N(CC#CC(O)(c1ccccc1)c1ccccc1)CCO	2.5%	6.3	?	-10.4	10.1%	2.0%	-43.9%[inhibitor]
CC(C)(C)c1ccc(C(=O)N/C(N)=N/c2nc3ccccc3o2)cc1	13.6%	-3.7	0.5	-4.0	-1.6%	8.4%	11.1%
COc1ccc(/C=C/C(=O)N(CCC(N)=O)c2ccccc2)cc1S(=O)(=O)N1CCOCC1	·	-8.9	·	15.0	·	-2.5%	-7.3%[15.4 µM]
CSc1ccccc1NC(=O)c1cc(C(C)C)on1	?	-0.2	-2.3	-7.0	-1.2%	-11.9%	10.5%
O=C(Cn1cnc2c(NCc3ccccc3)ncnc21)NCc1ccc2c(c1)OCO2	·	·	·	4.5	-3.8%	9.4%	·
COc1cc(OC)c(C(=O)Nc2ccccc2-c2ccccc2)cc1OC	-15.6%	-1.9	2.2	7.5	3.1%	4.5%	0.2%
Cc1noc(C)c1COc1cccc(C(=O)OCC(=O)NC(=O)c2ccc(OC(F)F)cc2)c1	-30.8%	3.5	6.3	-0.1	0.8%	19.0%	6.5%
CN(CCc1ccccc1)C(=O)c1ccc(NC(=O)Cc2ccc(NC(=O)C3CCN(C(=O)C4CCCCC4)CC3)cc2)cc1	·	·	·	0.9	0.6%	2.1%	·
CCCCOc1ccc(C(=O)NNC(=S)NC(=O)CC)cc1	-5.0%	9.2	0.9	-3.4	-5.9%	15.9%	4.0%
CCOC(=O)Cn1nnnc1CN(Cc1ccc(OC)cc1)Cc1cc2cc(CC)ccc2[nH]c1=O	17.8µM*	·	0.3	-0.1	?	-24.6%	9.6%
CCn1c(CCNC(=O)c2ccc(C)cc2)nnc1SCc1ccc(Cl)c(Cl)c1	-14.2%	-6.3	4.3	-4.1	1.1%	-14.9%	-11.3%
Cc1ccc(N/C(N)=N/c2nc(CSc3nnc(C)s3)cc(=O)[nH]2)c(C)c1	7.3%	6.6	-1.9	-1.6	1.2%	15.8%	7.9%
CC(=O)Oc1c(C(=O)c2nnc(C)o2)c(=O)n(C)c2ccccc12	-4.8%	8.4	-1.6	8.1	?	8.8%	-4.0%
NS(=O)(=O)c1ccc(NC(=O)CSC2=NC(=O)C(c3ccccc3)C(=O)N2)cc1 (centres undefined)	14.1%	3.1	1.9	-4.6	-1.3%	17.4%	-40.6%[inhibitor]
COc1ccc(CCOC(=O)CNC(=O)c2ccc(Cl)cc2Cl)cc1	1.2%	12.3	·	18.3	-1.6%	-6.0%	-12.2%
CCc1ccccc1NC(=O)CNC(=O)c1cc(C2CC2)nn1-c1ccccc1	·	19.8	·	4.1	-1.2%	3.1%	?
CCCOC(=O)CC1C(=O)NCCN1C(=O)OC(C)(C)C (centres undefined)	7.3%	-3.9	-0.4	12.1	·	17.5%	-14.5%[15.4 µM]
CCC(C)NC(=O)CN1C(=O)COc2ccc(S(=O)(=O)N3CCOCC3)cc21 (centres undefined)	10.7%	-3.8	·	-9.8&6.4	-2.0%&-11.6%	8.7%	15.9%
CC1Cc2nc(SCC(=O)N3CCOCC3)n(-c3ccccc3)c(=O)c2S1 (centres undefined)	7.8%	-3.4	3.3	-8.5	-0.8%	-6.1%	-54.2%[inhibitor]
CN(CC(=O)Nc1ccccc1C(F)(F)F)C(=O)COc1ncnc2sccc12	14.3%	1.7	3.2	3.3	?	4.5%	-57.1%[inhibitor]
CC(Sc1ccccn1)C(=O)Nc1ccc(S(N)(=O)=O)cc1 (centres undefined)	-7.7%	-8.7	7.0	-8.6	0.0%	3.8%	-1.8%
CC(C)N(C(=O)C[n+]1ccc(/C=N/O)cc1)C(C)C	-11.5%	-11.8	1.6	8.5	-1.4%	9.4%	-23.2%
CCn1c(=O)c(C(=O)NNS(=O)(=O)c2ccc(Br)cc2)c(O)c2ccccc21	29.7%	-14.9	5.2	1.2	-2.9%	-20.3%	?
O=C1C(=O)N(CCN2CCOCC2)C(c2ccccn2)/C1=C(/O)c1ccccc1 (centres undefined)	56.2µM*	-4.4	1.1	-10.8	-0.5%	18.9%	18.5%
CCc1ccc(NC(=O)NNC(=O)c2cc3ccccc3cc2O)cc1	2.9%	1.5	6.3	2.9	1.7%	11.8%	18.6%
CCCCCOC(=O)Cn1c(=O)oc2ccccc21	-11.9%	-31.4	2.3	-4.3	-0.9%	-12.0%	-1.5%
COc1ccc([C@H]2CC(=O)C=C(c3ccc(C)c(F)c3)C2)cc1	·	-14.2	·	8.6	0.9%	-18.1%	3.3%
CC(C)(C)C(=O)NNC(=O)COc1ccc2ccccc2c1Br	13.7%	16.4	1.8	2.9	-0.6%	-2.7%	?
O=C1CNC(=O)N1CC(O)Cn1c2ccccc2c2ccccc21 (centres undefined)	0.5%	-10.1	-4.8	-3.0	-7.5%	-18.1%	-0.2%
CCC(C)(C)n1c(=O)[nH]c2c(c1=O)CCC2	-4.3%	3.7	1.1	-3.8	2.0%	9.4%	25.9%
COc1ccc(/C=C/C(=O)CCC(=O)O)cc1	-2.6%	3.9	-1.6	-6.4	·	-9.3%	-0.1%[15.4 µM]
CC(C)(CO)NCc1ccc(Br)cc1	-9.2%	1.2	1.0	0.4	·	·	20.5%[15.4 µM]
Cc1ccc(Cn2c(=N)c(C(=O)NCCN3CCOCC3)cc3c(=O)n4ccccc4nc32)cc1	9.6%	-6.4	9.2	25.8	4.3%	-17.4%	?
CC(OC(=O)CCN=C1NS(=O)(=O)c2ccccc21)C(=O)Nc1ccc(F)c(F)c1F (centres undefined)	·	-2.1	·	-9.9	31.6µM*	5.2%	-32.7%[inhibitor]
COc1ccc(OC)c(S(=O)(=O)n2nnc3ccccc32)c1	5.9%	-12.2	1.8	13.8	-0.3%	-15.1%	-3.2%
Cc1ccn2cc(-c3ccc(O)c(O)c3)nc2c1	50.1µM*	-2.6	1.5	-6.7	?	-10.8%	-81.2%[inhibitor]
CCCCSC(=S)NC1CCS(=O)(=O)C1 (centres undefined)	-2.5%	-6.8	-1.8	-4.7	-1.2%	9.0%	35.1%
Cc1cc(NC(=O)CCC(=O)N(CC(=O)NC2CCCC2)c2ccc(F)c(Cl)c2)no1	9.4%	2.4	0.8	1.5	·	-0.8%	-2.4%
CCN(CC)CC(=O)c1ccc(-c2ccccc2)cc1	-54.2%	10.5	2.0	-0.4	-21.7%	11.4%	-36.9%[inhibitor]
Cc1ccc(C)[n+](CC(=O)N2CCCCC2)c1	16.7%	5.1	-0.1	7.2	·	11.3%	-8.9%
CC1CCN(CCCNC(=O)c2cc3c(s2)-c2ccccc2OC3)CC1	-2.2%	0.0	0.3	1.4	4.4%	22.2%	11.3%

Brought forward from above: 2 compounds, then new ones.
SMILES	Sfp PPTase inh	TRPV1 potentiator	Menin-MLL FL inh	TRPML1 inh	ClpP mod	gsp antagonist	gsp ag
Cc1ccc(C)[n+](CC(=O)N2CCCCC2)c1	16.7%	5.1	-0.1	7.2	·	11.3%	-8.9%
CC1CCN(CCCNC(=O)c2cc3c(s2)-c2ccccc2OC3)CC1	-2.2%	0.0	0.3	1.4	4.4%	22.2%	11.3%
Cn1c(=O)c2c(nc(Sc3ncnn3CC(=O)NC3CCCCC3)n2C)n(C)c1=O	13.1%	19.8	0.9	71.6	-1.2%	1.3%	?
CC(=O)c1ccc(NC(=O)C2CC(=O)Nc3nc4ccccc4n32)cc1 (centres undefined)	6.5%	-2.2	4.3	2.7	0.1%	-9.9%	-22.2%
CCOc1ccc(C(CC(=O)O)NC(=O)c2ccco2)cc1 (centres undefined)	10.6%	2.7	-6.7	-7.1	0.9%	-2.6%	-36.8%[inhibitor]
C/C(=N\NC(=O)C1(C)NC(C)(C)Cc2ccccc21)c1ccccc1 (centres undefined)	5.6%	7.4	-1.9	-8.0	·	-14.7%	-0.7%[15.4 µM]
C[C@@H]1NC(=O)N[C@@H]1CCCCCC(=O)O	·	·	·	-3.0	-0.3%	16.5%	·
COCCCNC(=O)c1ccc2c(=O)n(Cc3ccc(Cl)cc3)c(=S)[nH]c2c1	-13.2%	3.6	-2.5	23.6	0.3%	1.3%	-29.1%
CCCCN1C(=O)c2ccc(C(=O)OCC(=O)NCCc3ccc(S(N)(=O)=O)cc3)cc2C1=O	·	·	·	-20.3	-1.8%	-4.4%	-0.1%[15.4 µM]
CCN(CCCNC(=O)CN(C)S(=O)(=O)c1ccc2c(c1)CCC(=O)N2)c1cccc(C)c1	-4.8%	-5.7	0.9	2.1	0.3%	-2.4%	34.2%
O=C1c2ccccc2C(=O)c2[nH]cnc21	18.1%	9.3	4.0	?	1.5%	18.4%	11.7%
